NPYLR7 ag: agonists of mosquito NPYLR7 receptor, primary screen, cell-based, Aedes aegypti, calcium fluorescence, mosquito biting behavior; Aedes aegypti neuropeptide Y-like receptor 7 (NPYLR7); HEK293T NPYLR7/Galpha15, GCaMP6s calcium fluorescence; activation, % at 10 µM; AID 1259423, 2018; actives 0.15% (n = 270,000); in the data active means activation above about 40%;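 further: 0% = vehicle and 100% = reference agonist at the receptor; some compounds past the cut are filed as inactive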
NPYLR7 ag max-min: further read-out of NPYLR7 ag, marked with its call; activation, %; measured here: Max-Min RFU normalised activation; some inactives read as strong as hits;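 span of the calcium signal over five minutes; 0% = vehicle and 100% = native peptide agonist; compound fluorescence can raise it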
The depositor's hits bear a star; & = joins results of further samples. Some of the compounds tested; count on the stated rates, not on these rows.

SMILES	NPYLR7 ag	NPYLR7 ag max-min
CC1CCN(C(=O)CNc2cc(S(C)(=O)=O)ccc2F)CC1	2	-2
O=C(Nc1nnc(-c2ccc(Cl)s2)o1)c1cccc(F)c1	-7	-9
Cc1ccc(/C=C/CC(=O)Nc2ncn(CC(=O)N(C)C)n2)cc1	3	-1
O=C(CCNC(=O)c1ccoc1)Nc1cc(Cl)ccc1F	-1	-2
COC(=O)c1c(OCC2CC(=O)N(C)C2)cc(=O)n2c1CCN(Cc1ccc(C)c(C)c1)CC2 (configuration not stated)	-2	-4
CC(=O)Nc1cccc(NC(=O)CSc2cn(CC(=O)N3CCCC3)c3ccccc23)c1	-4	-10
S=c1[nH]nc(Nc2cccc(Br)c2)s1	-9	-9
COCCS(=O)(=O)c1ncc(CN2CCCC2)n1Cc1ccccc1	0	-1
COc1ccc(CNC(=O)c2ccccc2NS(=O)(=O)c2c(C)c(C)cc(C)c2C)cc1	3	1
CCCCCCc1ccc(C(=O)N(CC(=O)N(CCc2c[nH]c3ccccc23)Cc2ccc(OC)cc2)C(C)C)cc1	22	26
O=C(O)C1C2C=CC3(O2)C1C(=O)N1c2ccccc2C2OCCC2C13 (configuration not stated)	3	0
O=S1(=O)CCN(CCNc2ncnc3cc(F)c(F)cc23)CC1	-4	-6
Cc1ccc(C)c(OCC(=O)NC(C)Cc2ccncc2)c1C (configuration not stated)	-2	7
O=c1oc2ccccc2cc1-c1nnc(-c2ccc(Br)cc2)o1	2	-2
CCOC(=O)C(C)(C)C(=O)c1ccc2cc(OC)ccc2c1	-6	-8
Cc1ccc(OC2(C(=O)N[C@@H]3c4ccccc4C[C@@H]3O)CCNCC2)cc1	0	-2
CC(C)(C)N(CC(=O)N1CCc2sccc2C1c1ccccc1)S(=O)(=O)c1ccc(F)cc1 (configuration not stated)	-4	9
c1ccc2c(c1)nc1nccc(-c3ccncc3)n12	-10	-15
CS(=O)(=O)c1ccccc1-c1nnc(NC(=O)c2cc(Cl)ccc2Cl)o1	5	-1
N#Cc1ccc(C(=O)NCC2CCN(Cc3ccccc3)CC2)cc1	-10	-11
Cc1csc(Sc2ncnc3c2CCCC3)n1	7	3
CCS(=O)(=O)N1CCC(Nc2nc3ccccc3s2)CC1	9	1
N#CC1C(=N)C(C#N)(C#N)[C@@H](c2cccs2)[C@@H]2CCCC=C12 (some centres not stated)	34	27
Cc1[nH]c(=O)[nH]c(=O)c1CN1CCCCC1	5	4
CCc1ccc(NC(=O)c2c(N)c(C(=O)c3ccc(C)cc3)n3ccccc23)cc1	-1	-7
Cc1cc2cc(CNC(=O)c3ccc(S(=O)(=O)N(C)C)cc3)ccc2[nH]1	-6	-5
O=C(Nc1ccc(-c2ccco2)cc1)C1CCCN(C(=O)CCN2CCCCCC2=O)C1 (configuration not stated)	0	-1
O=C(CCc1nnc(C2(c3ccc(Cl)cc3)CCC2)o1)N1C[C@@H]2CCC[C@H]1C2	7	-1
O=C(CN1CN(c2ccccc2)C2(CCN(C(=O)NC34CC5CC(CC(C5)C3)C4)CC2)C1=O)N1CCOCC1	12	12
NC(=O)c1ccccc1OCC(=O)N1CCCc2ccccc21	-6	-10
Cc1nn(C2CCS(=O)(=O)C2)c(C)c1C=C1CCn2c1nc1sc(C)c(C)c1c2=O (configuration not stated)	-1	2
CN1CCN(c2cncc(C(N)=O)n2)CC1C(=O)O (configuration not stated)	1	0
COc1ccc(F)c(CN2CCCC(O)(CN3CCC4(CCCC4)C3)C2=O)c1 (configuration not stated)	-3	-6
COc1cccc(Cn2c(C(=O)N3CCN(C(=O)CCc4ccccc4)C(C)C3)cc3ccsc32)c1 (configuration not stated)	-1	0
Cc1ccc(Cl)cc1-n1c(SCc2nc(C(=O)NC(C)c3ccccc3)cs2)nnc1-c1ccncc1 (configuration not stated)	-5	-2
COc1ccc(CCNC(=O)N2CCc3ccccc32)cc1OC	0	0
Cc1nc2ccccc2c(=O)n1NC(=O)c1cccc(C(F)(F)F)c1	-3	-3
Cn1nnnc1-c1cccc(NC(=O)Cc2ccc(C(F)(F)F)cc2)c1	19	12
Cc1ccccc1-c1cccc(C(=O)N[C@H]2C[C@H]3C(=O)NCC(=O)N3C2)c1	-3	-3
Cc1ccn2c(=O)nc(SCC#N)nc2c1	2	3
Cc1noc(C)c1S(=O)(=O)N1CCN(C(=O)c2cc(F)cc(F)c2)CC1	-1	-1
Cc1c(C)n2c3c(=O)n(Cc4ccccc4)c(=O)n(C)c3nc2n1Cc1ccccc1	7	9
CNC(=S)Nc1ccc(Nc2ccccc2OC)cc1	0	-2
Cc1cc(C(=O)NCc2ccnc(OC3CCCCC3)c2)n(C)n1	-2	-2
CCN1C(=O)C(=Cc2c(NCCOC)nc3c(C)cccn3c2=O)SC1=S	0	-1
O=C1OCCC1NC(=O)[C@H]1c2ccccc2C(=O)N(CCc2ccccc2)[C@H]1c1ccccc1[N+](=O)[O-] (some centres not stated)	-2	-5
CC(CN(C)C)CN1c2ccccc2CCc2ccccc21 (configuration not stated)	-6&-7&5	-11&-11&-27
O=C(NC1CCOC2(CCOCC2)C1)C1CC1c1cccc(F)c1 (configuration not stated)	3	1
Cc1cc(C)c2[nH]c(C(=O)N(C)Cc3cnn(C)c3C)c(C)c2c1	5	3
Cn1ccnc1SCC(=O)Nc1nc(-c2ccccc2)cs1	-6	-8
CCCCN(CC)c1nc(-c2ccc(Cl)cc2)nc2ccccc12	1	8
Cc1cccc(Oc2cc(NC(=O)Cn3cnc([N+](=O)[O-])n3)cc([N+](=O)[O-])c2)c1	-14	-23
COCc1cc(N2CCCC2)nc(SCc2cccc(C(=O)NC3CC3)c2)n1	-4	5
CC1(C)CCC(=O)c2nnn(-c3nonc3N)c21	9	5
O=S(=O)(Cc1ccccc1)NCC1CCCN(Cc2cccc3nonc23)C1 (configuration not stated)	8	7
COc1ccc(-c2cn[nH]c2-c2ccc(OCCN3CC4CC(C3)c3cccc(=O)n3C4)cc2O)cc1 (configuration not stated)	2	2
O=C(NCC1CCCO1)C1CCN(C2CCN(Cc3ccsc3)CC2)CC1 (configuration not stated)	10	4
O=C(c1ccc2c(c1)CCO2)N1C[C@H]2C[C@H](C1)[C@@H]1CCCC(=O)N1C2	-1	19
O=C(Nc1ncc([N+](=O)[O-])s1)c1ccc(=O)n(Cc2cccc(Cl)c2)c1	18	10
c1csc(-c2cc(-c3nn4c(CN5CCCCC5)nnc4s3)c3ccccc3n2)c1	3	1
Next section
SMILES	NPYLR7 ag	NPYLR7 ag max-min
CCC1c2ccsc2CCN1C(=O)c1ccc2c(c1)OCC(=O)N2 (configuration not stated)	7	2
CCc1ccc(CNc2cc(C(=O)NCCN3CCNC3=O)cc(S(=O)(=O)N(C)C)c2)cc1	-2	-6
COc1ccc(C2c3cc4c(cc3OC(=N)C2C#N)OCO4)cc1OC (configuration not stated)	5	4
O=C(NCCc1ccccn1)N1CCC(c2nc(-c3ccccc3)n[nH]2)CC1	-1	-4
Cc1cc(CC(C)Nc2nc(-c3cccnc3)nc3c2CNC3)n[nH]1 (configuration not stated)	20	15
COCCCN(CC(=O)N(CCc1c[nH]c2ccccc12)Cc1ccccc1)S(=O)(=O)c1ccc(Br)cc1	-5	6
CCOc1ccc(N2CC(C)Cn3c2nc2c3c(=O)n(CC(C)C)c(=O)n2C)cc1 (configuration not stated)	0	7
CCCCc1cnc2c(c1SCc1ccccn1)c(=O)n(C)c(=O)n2C	7	11
CO[C@H]1CN(C(=O)OC(C)(C)C)CC1NC(=O)c1ccc(F)cc1Cl (some centres not stated)	21	20
Cc1cc(N2CCc3ccccc32)nc(-n2cc([N+](=O)[O-])cn2)n1	8	7
CCOC(=O)c1ccc(Oc2coc3c4c(ccc3c2=O)OCN(C2CCS(=O)(=O)C2)C4)cc1 (configuration not stated)	1	1
O=C(NCc1cccs1)c1csc(-c2cc3ccccc3[nH]2)n1	8	6
CCc1ncc(C(=O)NCC(=O)NCc2ccc(OC)cc2)[nH]1	-2	-6
O=c1c2ccccc2cnn1-c1nc2ccccc2[nH]1	-1	2
Cc1c(C)n2c3c(=O)[nH]c(=O)n(C)c3nc2n1CCCN1CCCCCC1	5	-3
Cc1noc(C)c1C(C)NC(=O)Nc1ccc2c(c1)CCCN2C (configuration not stated)	-21	-23
CCNC(=O)c1ccc(Sc2ccc(F)cc2)c([N+](=O)[O-])c1	1	0
Cc1nc2c(c(N3CCCC3)n1)CCN(C(=O)CCc1c(C)n[nH]c1C)C2	0	11
Cc1ccccc1NC(=O)NCCNc1nc(C2CC2)nc2cc(Cl)ccc12	5	9
Cc1nc2nc3ccn(C4CCCC4)c(=O)c3c(-c3cccc(Cl)c3)n2n1	-15	-22
C#CCn1c(=NC(=O)c2cc(C)no2)sc2cc(OC)ccc21	-2	2
COc1ccc(-n2c(C)c(C)n3c4c(=O)n(CC(C)=O)c(=O)n(C)c4nc23)cc1	17	5
CNc1nc(-c2cccc(NC(C)=O)c2)cn2ccnc12	1	-1
O=C(NCC1CCCCC1)c1cccnc1Nc1cc(Cl)cc(Cl)c1	1	-3
CCOC(=O)c1c(-c2cc(OC)c(OC)c(OC)c2)csc1NC(=O)c1ccc(F)c(F)c1	-1	-5
C=CCN1C(=O)/C(=C/c2cn(C)c3ccccc23)SC1=S	0	-1
COc1ccc2c(c1)CCCN2S(=O)(=O)c1ccc2c(c1)CCC2	4	2
OCCn1cc(-c2cnc3nnn(Cc4ccc5ncccc5c4)c3n2)cn1	-10	-15
CCC(=O)c1ccc(O)c(CC=C(C)C)c1	1	3
O=c1cncc(-c2cc(O)cc(CCC3CCCCN3)c2)[nH]1 (configuration not stated)	21	6
Cc1sc2ncnc(NNC(=S)NCCN(C)C)c2c1C	2	23
Cc1cc(C(C)Nc2ccc(Cl)cn2)c(C)o1 (configuration not stated)	-7	-8
NC(=O)NCc1ccc(C(=O)OCC(=O)NC(=O)NCc2ccco2)cc1	-1	0
CCOC(=O)C1=C(O)/C(=C\c2cccn2C)SC1=Nc1cccc(C(F)(F)F)c1	9	5
Cc1ccc(-c2nc(OCC(C)C)nn2-c2ccc(NC(=O)C(C)Cl)cc2)cc1 (configuration not stated)	8	6
COc1ccc(Cl)cc1CN(C)CC(O)COc1cc(C)ccc1C (configuration not stated)	-1	-4

Compound profiles (already shown):
Results for `CNc1nc(-c2cccc(NC(C)=O)c2)cn2ccnc12` = NPYLR7 ag = 1; NPYLR7 ag max-min = -1
Results for `Cc1ccccc1NC(=O)NCCNc1nc(C2CC2)nc2cc(Cl)ccc12` = NPYLR7 ag = 5; NPYLR7 ag max-min = 9

Structures shown so far that contain a furan ring, fused or not (four):
SMILES	NPYLR7 ag	NPYLR7 ag max-min
O=C(CCNC(=O)c1ccoc1)Nc1cc(Cl)ccc1F	-1	-2
O=C(Nc1ccc(-c2ccco2)cc1)C1CCCN(C(=O)CCN2CCCCCC2=O)C1 (configuration not stated)	0	-1
Cc1cc(C(C)Nc2ccc(Cl)cn2)c(C)o1 (configuration not stated)	-7	-8
NC(=O)NCc1ccc(C(=O)OCC(=O)NC(=O)NCc2ccco2)cc1	-1	0

Some of the entries so far, with each value named.
> O=C(NC1CCOC2(CCOCC2)C1)C1CC1c1cccc(F)c1 (configuration not stated)
  NPYLR7 ag = 3
  NPYLR7 ag max-min = 1

> Cc1cc(C)c2[nH]c(C(=O)N(C)Cc3cnn(C)c3C)c(C)c2c1
  NPYLR7 ag = 5
  NPYLR7 ag max-min = 3

> Cn1ccnc1SCC(=O)Nc1nc(-c2ccccc2)cs1
  NPYLR7 ag = -6
  NPYLR7 ag max-min = -8

> CCCCN(CC)c1nc(-c2ccc(Cl)cc2)nc2ccccc12
  NPYLR7 ag = 1
  NPYLR7 ag max-min = 8

(more compounds)
SMILES	NPYLR7 ag	NPYLR7 ag max-min
COc1ccc(CN(C(=O)/C=C/c2ccccc2)C(C)C)cc1OS(C)(=O)=O	13	24
NC(=O)c1ccc(NCCc2csc3ccccc23)nn1	-1	-1
O=C(NN=Cc1ccc2c(c1)OCCO2)c1ccc([N+](=O)[O-])cc1	-13	-7
Cc1ccc(C(C)C)c(OCC(=O)N=Nc2c(O)[nH]c3ccc([N+](=O)[O-])cc23)c1	1	-5
NC(=O)N=Nc1c(O)[nH]c2ccccc12	-6	-13
COCC(=O)N(Cc1csc(COc2cccc3ccccc23)n1)CC(C)C	18	22
Cc1cc(Cl)ccc1-n1nc(C)c(CCC(=O)O)c1C	10	3
CCCCNC(=O)c1cc(-c2ccc(F)cc2)n2nc(C(C)(C)C)cc2n1	6&13	6&12
OCC1(CCCc2ccccc2)CCN(Cc2nc3ccc(F)cc3[nH]2)CC1	1	-2
Oc1ccc(CN2CC[C@@H](N3CCN(CCc4ccccc4)CC3)[C@H](O)C2)cc1Cl	15	4
CCCc1c(C(=O)N2CCCC2)cnn1-c1cccc(C)c1	18	26
COCCCNC(=O)C(NC(=O)c1ccccc1)C1CCN(C(=O)c2ccc(C(F)(F)F)cc2)CC1 (configuration not stated)	2	0
Cc1ccc(C)c(-n2c(SCC(=O)c3c(N)n(C)c(=O)n(C)c3=O)nc3ccccc3c2=O)c1	1	0
COCC(=O)N1CCCCC1C1=CCCN(Cc2c(C)noc2C)C1 (configuration not stated)	12	-2
